Assay outcomes (PubChem BioAssay)
T cruzi inh: blocks replication of Trypanosoma cruzi. actives 1.4% (n = 300,000). T. cruzi beta-gal in NIH3T3, luminescence, 90 h. inhibition, % (no concentration beside the values);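 active = mean inhibition across valid replicates above about 55%, limit read from the data; inconclusive = mean below that limit but half or more replicates reach it; inactive = mean below it, under half of replicates reach it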;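 note: signal also drops with host cell toxicity which is not excluded here; 0% = plate median of DMSO wells and 100% = zero luminescence signal; higher percent means less beta-gal luminescence so fewer parasites; stock transfer was 50 nL into about 50 µL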
A1 inh: inhibitors of the anti-apoptotic protein A1, read as caspase activation | caspase activation, % (no concentration beside the values) | MEF A1-2A-BIM cells, Caspase-Glo 3/7 luminescence, 3 h; percent of clofoctol response, vehicle zero | actives 0.066% (n = 330,000);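 active = over half of replicate activation scores above 10%, or exactly half above 10 with the replicate mean above 10; inconclusive = replicate mean below 10 yet half the replicates above 10; inactive = over half of replicates below 10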;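 note: wells of about 30 µL received 50 nL stock; many hits fall short of the cut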
Beta cell apopt: blocks beta cell apoptosis; INS-1E cytokine-induced death, ATP luminescence, 48 h; percent of positive-control rescue, neutral wells zero; protection from apoptosis, % (no concentration beside the values); actives 0.8% (n = 300,000); AID 435005;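 active = all replicates at 75% or more, or half of them and the mean; inconclusive = half reach 75% but not the mean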;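 note: 0% = cytokine-treated negative control wells and 100% = positive control rescue; higher means more ATP so stronger rescue from cytokine killing; wells of about 40 µL received 100 nL stock; the first replicate is given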
rRNA inh HTS: selective bacterial rRNA inhibition in E. coli. AID 720706. actives 1.6% (n = 350,000). E. coli WT GFP vs humanized-ribosome RFP mutants, fluorescence, 24 h; hits give low values; DMSO median 0, no signal -100. GFP signal change (wild-type ribosome), % (concentration not given with the values);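 active = significant combined selectivity score with lowered wild-type GFP, culture density cut under 30%, mutant RFP and density less affected; inactive = any of these conditions unmet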; note: one replicate is shown; some compounds called inactive have numbers as strong as hits
AF4-AF9 inh: inhibitors of human MLL-AF4/AF9 interaction | P42568 | AlphaScreen, biotin-AF4 peptide binding to FLAG-AF9 | inhibition, % at 10 µM | actives 0.47% (n = 350,000) | AID 651704;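 active = every replicate reaching a set inhibition limit, whatever the replicate mean, cut at about 25% in these data; inconclusive = mean inhibition reaches that limit but some replicates miss it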;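 note: 0% = plate neutral control median and 100% = total signal loss; the record names both 10 and 1 µM as test concentration; the first replicate is given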
Target sequence (P42568 whole entry, looked up): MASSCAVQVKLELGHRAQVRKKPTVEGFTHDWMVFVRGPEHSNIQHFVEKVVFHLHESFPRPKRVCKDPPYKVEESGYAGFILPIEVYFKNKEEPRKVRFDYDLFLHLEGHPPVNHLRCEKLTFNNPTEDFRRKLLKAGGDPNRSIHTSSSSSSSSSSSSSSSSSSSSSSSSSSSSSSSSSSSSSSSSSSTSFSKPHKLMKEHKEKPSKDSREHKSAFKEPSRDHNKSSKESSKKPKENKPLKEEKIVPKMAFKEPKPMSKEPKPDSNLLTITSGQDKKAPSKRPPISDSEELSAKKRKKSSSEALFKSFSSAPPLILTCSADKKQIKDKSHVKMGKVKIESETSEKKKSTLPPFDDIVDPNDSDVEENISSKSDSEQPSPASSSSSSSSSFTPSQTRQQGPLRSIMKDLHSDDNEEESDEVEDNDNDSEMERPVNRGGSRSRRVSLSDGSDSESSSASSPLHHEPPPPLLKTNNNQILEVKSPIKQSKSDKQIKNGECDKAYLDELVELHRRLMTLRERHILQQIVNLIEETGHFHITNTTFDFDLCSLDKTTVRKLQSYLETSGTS
UCH37 inh: blocks the human deubiquitinase UCH37. inhibition, % (test concentration not listed). Q9Y5K5. purified proteasome/UCH37, Ub-AMC cleavage fluorescence. actives 0.33% (n = 330,000);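 active = mean of two replicates above 20%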;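 note: 0% = compound-free wells with enzyme and 100% = wells lacking proteasome; stock transfer was 100 nL into about 20 µL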
Target sequence (Q9Y5K5 whole entry, looked up): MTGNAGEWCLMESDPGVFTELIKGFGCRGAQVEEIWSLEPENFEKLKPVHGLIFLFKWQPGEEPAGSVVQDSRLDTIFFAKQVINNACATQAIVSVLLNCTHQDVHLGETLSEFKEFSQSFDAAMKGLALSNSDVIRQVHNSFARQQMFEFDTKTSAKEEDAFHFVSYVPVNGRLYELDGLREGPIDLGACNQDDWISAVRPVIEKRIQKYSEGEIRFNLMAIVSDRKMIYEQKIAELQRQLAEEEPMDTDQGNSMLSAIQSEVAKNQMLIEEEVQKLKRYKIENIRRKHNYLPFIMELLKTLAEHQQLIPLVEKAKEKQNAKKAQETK
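Reagent: Ub-AMC substrate; assay system: Proteasome-associated human UCH37 deubiquitinase; controls: no-proteasome and no-compound wells; read-out: % inhibition of Ub-AMC cleavage fluorescence; timing: 30 min preincubation with enzyme, 25 min cleavage at room temperature; signal: AMC fluorescence from Ub-AMC cleavage, excitation 355 nm, emission 460 nm; buffer or medium: Tris-HCl pH 7.4 plus ovalbumin, ATP-MgCl2, DTT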
E coli growth: blocks Escherichia coli growth; actives 0.21% (n = 330,000); OD600 absorbance (test concentration not listed); AID 1053175; OD600, 23 h; hits give low values;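 active = OD600 absorbance below the run mean of sample wells minus 3.6 SD, in any replicate, cut at about 0.56 in these data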;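 note: stock transfer was 300 nL into about 60 µL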
FGF22 binding: shifts melting point of recombinant human FGF22 | Q9HCT0 | recombinant FGF22 thermal shift, SYPRO orange fluorescence; percent of sucrose octasulfate shift, DMSO zero | calls only at 9.99 µM | actives 1.5% (n = 340,000) | AID 651658;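 active = melting point raised past a set limit in the mean and every replicate; inconclusive = no clear call; three in four hits are not shown here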
Target sequence (Q9HCT0 whole entry, looked up): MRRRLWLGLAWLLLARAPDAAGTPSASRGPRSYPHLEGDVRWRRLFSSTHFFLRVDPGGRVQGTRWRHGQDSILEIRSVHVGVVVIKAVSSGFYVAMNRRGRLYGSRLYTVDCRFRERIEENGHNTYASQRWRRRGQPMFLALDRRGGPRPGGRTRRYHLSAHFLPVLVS
rRNA inh HTS OD600: also measured in rRNA inh HTS; calls as there; OD600 change, %; measured here: OD600 growth;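 optical density of the mix in the first replicate; 0 = DMSO median and -100 = no signal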
rRNA inh HTS RFP: recorded beside rRNA inh HTS, whose call it bears; RFP signal change, %; measured here: RFP humanized mutant strains;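 first replicate; 0 = DMSO median and -100 = no signal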
* marks the source's active call; other numbers are inactive results; i = inactive; ? = inconclusive; . = not tested or not shown. Some of the compounds tested, so the mix of outcomes need not match the whole.

SMILES | T cruzi inh | A1 inh | Beta cell apopt | rRNA inh HTS | rRNA inh HTS OD600 | rRNA inh HTS RFP | AF4-AF9 inh | UCH37 inh | E coli growth | FGF22 binding
CC(=O)c1ccc(OC(C)C(=O)NCC2(N3CCOCC3)CCCCC2)cc1 (centres undefined) | . | -1.9 | 0 | 3 | 8 | 1.9 | -2.6 | 3.5 | 0.73 | i
c1ccc(-c2nc(N3CCCCCC3)c3ccccc3n2)nc1 | 63* | 0.2 | 123* | . | . | . | . | 6.5 | 0.72 | .
N/C(=N\NC(=O)c1ccccc1Cl)c1cc2ccccc2oc1=O | -18 | 0.2 | -11 | 18 | 16 | 5.8 | -10 | 1.6 | 0.67 | i
CCOc1ccc2nc(SCC(=O)NCc3ccc(S(N)(=O)=O)cc3)[nH]c2c1 | -11 | 0.5 | -2 | -6 | 0 | -1.7 | -0.3 | 3.2 | 0.67 | i
COc1ccc(C2NC(=O)NC3=C2C(=O)CCC3)cc1 (centres undefined) | -1 | 0.2 | -3 | 17 | 12 | 0.9 | -0.9 | 1.9 | 0.7 | i
COc1cccc(OC)c1C(=O)NC(=O)Nc1c(F)cc(F)cc1F | 4 | -1.1 | -6 | 10 | 5 | -0.4 | -4.5 | 1.1 | 0.71 | i
Cc1csc(=O)n1CC(=O)OCC(=O)Nc1cc([N+](=O)[O-])ccc1Cl | -16 | -1.4 | 4 | 0 | 17 | -0.4 | 0.1 | 1.8 | 0.71 | i
Cc1ccccc1NC(=O)C(C)OC(=O)c1ccccc1C(=O)N(C)c1ccccc1 (centres undefined) | 0 | 0.9 | -8 | -3 | -4 | -0.7 | -1.1 | 1.4 | 0.69 | i
CN(C)/C=C(/C(=O)c1ccccc1Cl)S(=O)(=O)c1ccccc1 | 1 | 0.2 | -3 | . | . | . | . | 1.3 | 0.73 | .
CCC1(C)Cc2c(C#N)c(N)sc(=S)c2CO1 (centres undefined) | 5 | 0.7 | -15 | 4 | 5 | 8.9 | . | 7.4 | 0.72 | .
O=C(CN1C(=O)CS/C1=C\c1nc(-c2ccc(Cl)cc2)cs1)Nc1cccnc1Cl | -6 | ? | 1 | 10 | 8 | 7.0 | -0.5 | -7.4 | 0.63 | i
N#Cc1cccnc1N1CCN(C(=O)COCC(=O)O)CC1 | -26 | -0.4 | 0 | 22 | 2 | 3.6 | -0.7 | -70 | 0.68 | i
Cc1ccccc1-n1c(SCC(=O)O)nc2sc3c(c2c1=O)CCCC3 | 0 | 2.0 | 0 | -4 | -21 | -1.3 | -1.3 | 6.2 | 0.73 | i
Cc1ccc(C(=O)Nc2cccnc2N2CCN(C)CC2)cc1 | -5 | 0.4 | 0 | 13 | 6 | 0.9 | -0.3 | 4.4 | 0.7 | i
CCCCNC(=O)c1onc(CSc2nc3ccccc3[nH]2)c1C(=O)NCCCC | 14 | -0.9 | -3 | -22 | -50 | -19 | -0.3 | 4.7 | 0.72 | i
COc1ccc2c(C)cc(=S)[nH]c2c1 | 28 | . | . | 7 | -8 | -1.7 | 3.1 | 5.6 | 0.66 | i
Cc1cccc(NC(=O)CSCC(=O)Nc2ccccc2N2CCCCC2)c1 | -6 | -0.5 | -2 | -2 | -2 | 0.1 | -0.4 | -0.7 | 0.62 | i
COC(=O)c1ccccc1NC(=O)c1ccc2nccnc2c1 | -8 | 0.1 | -4 | 12 | 1 | 0.9 | -3.2 | 4.4 | 0.66 | i
O=C1CC(C(=O)Nc2ccccc2)C2(CCCC2)O1 (centres undefined) | -3 | 1.3 | . | . | . | . | . | 1.7 | 0.71 | .
C#C[C@]1(O)CC[C@H]2[C@@H]3CCC4=Cc5oncc5C[C@]4(C)[C@H]3CC[C@@]21C | 18 | 0.4 | 7 | . | . | . | 0.9 | 0.4 | . | i
Cc1ccc(C(=O)NN2C(=O)C3C4c5ccccc5C(c5ccccc54)[C@@H]3C2=O)cc1 (some centres undefined) | -7 | 0.1 | 0 | . | . | . | . | 3.0 | 0.64 | .
CC1Cc2ccccc2N1C(=O)c1nn(C)cc1Br (centres undefined) | 12 | 1.5 | -1 | . | . | . | . | 2.3 | 0.7 | .
CCOc1ccc(CCNC(=O)C2CCN(c3nn4c(=O)cc(C)nc4s3)CC2)cc1 | . | 0.3 | -4 | . | . | . | . | -5.3 | 0.75 | .
O=C(Nc1ncc2c(n1)-c1ccccc1CC2)C1CC1 | -10 | 0.5 | 0 | 5 | 2 | -1.5 | -2.5 | 3.5 | 0.65 | i
O=C(Nc1ccc(Cl)cc1)Nc1nnc(SCc2ccccc2)s1 | -14 | 0.4 | 10 | -29 | -40 | -1.2 | -1.3 | 0.5 | 0.67 | i
O=C(Nc1c(F)cccc1F)c1cnc(N2CCN(c3ccccn3)CC2)c2ccccc12 | 20 | -0.4 | 11 | . | . | . | . | -21 | 0.75 | .
COc1ccc(S(=O)(=O)N(CCN2CCOCC2)Cc2cc(OC)ccc2OC)cc1 | 10 | -0.5 | 3 | . | . | . | . | 2.7 | 0.74 | .
CCn1c(SCC(=O)OC)nnc1-c1ccc(C)cc1 | -4 | 0.3 | -2 | 3 | -2 | -3.0 | -22 | 2.2 | 0.72 | i
N#Cc1ccc(Oc2ccc(-c3nc4ccccc4nc3-c3ccccc3)cc2)cc1C#N | 26 | -0.1 | 8 | . | . | . | . | -90 | 0.68 | .
CCN=C1SC(C(=O)Nc2cccc(C)c2)CC(=O)N1CC (centres undefined) | -1 | -0.2 | -2 | . | . | . | . | 4.8 | 0.68 | .
Cc1cc(C(=O)NCCc2ccccc2)c2cc(F)ccc2n1 | -4 | -0.1 | -1 | 0 | -3 | 1.3 | 3.6 | 1.6 | 0.66 | i
Cc1ccc(NC(=O)/C(C#N)=N/Nc2ccc(C(=O)O)cc2)c(C)c1 | -8 | -1.2 | -7 | 6 | -5 | 4.9 | 8.2 | . | . | i
COC(=O)c1ncn(C2OC(COC(C)=O)C(OC(C)=O)C2OC(C)=O)n1 (centres undefined) | -13 | 0.0 | -2 | . | . | . | -0.3 | 1.8 | 0.66 | i
COc1cccc(N2CCN(S(=O)(=O)c3cc4c(cc3Cl)NC(=O)CO4)CC2)c1 | -7 | -0.7 | -9 | 7 | 2 | 0.7 | 0.2 | 2.5 | 0.8 | i
CN(C)NC(=O)C(NC(=O)c1ccc(N)cc1)C12CC3CC(CC(C3)C1)C2 (centres undefined) | 10 | 0.5 | -6 | . | . | . | . | 1.9 | 0.7 | .
CCOC(=O)C1(Cc2cccc(Cl)c2)CCCN(C(=O)CCSC)C1 (centres undefined) | 2 | 0.5 | . | -3 | -2 | -2.3 | 4.4 | -1.2 | 0.68 | i
CCOc1ccccc1C1CC(=O)NC(SCC)=C1C#N (centres undefined) | -12 | 0.2 | 0 | . | . | . | . | 0.6 | 0.66 | .
COC(=O)c1ccc(Oc2c(C)oc3cc(OCc4cnn(-c5ccccc5)c4)ccc3c2=O)cc1 | 20 | -0.1 | 2 | . | . | . | . | -2.8 | 0.74 | .
Cc1ccc(NS(=O)(=O)c2ccc(C)c(NC(=O)COc3ccccc3)c2)c(C)c1 | -3 | -1.1 | 3 | . | . | . | . | 4.3 | 0.68 | .
CCCOc1ccc(/C=C2/C(=O)ON=C2C)cc1OCC | 1 | 0.0 | 1 | 9 | 4 | 3.1 | -1.9 | -1.1 | 0.69 | i
C=CCOc1c(Br)cc(/C=C2/C(=O)ON=C2C)cc1OC | -4 | -0.1 | -4 | 2 | -1 | -4.8 | 0.8 | 5.3 | 0.63 | i
CCOc1ccc(NC(=O)C2CC(=O)N(C(C)C)C2)cc1 (centres undefined) | -5 | 0.0 | -4 | . | . | . | . | 2.5 | 0.73 | .
CCC(=O)NCCc1nc2ccccc2n1CC(=O)c1ccccc1 | 2 | 0.0 | 0 | -1 | -8 | -8.5 | -2.3 | 1.4 | 0.76 | i
COc1ccc(CN2CCNC(=O)C2CC(=O)N2CCCCO2)cc1OC (centres undefined) | -9 | 0.1 | -8 | 15 | 11 | -1.5 | -0.6 | -3.1 | 0.67 | i
CCCn1c(N)c(N(CCOC)C(=O)c2ccc(F)cc2)c(=O)[nH]c1=O | -13 | 1.8 | -3 | 12 | 19 | 2.4 | -1.7 | 0.8 | 0.67 | i
CC(C)[C@H](NC(=O)NCCc1ccc(F)cc1)C(=O)O | -1 | 0.5 | 4 | . | . | . | . | -1.2 | . | .
COc1ccc(C(=O)NC2CC(C)(C)Cc3occc32)cc1 (centres undefined) | -18 | 0.4 | 5 | . | . | . | . | 1.7 | 0.68 | .
Cc1ccccc1CN1CCN(CC(=O)NCc2ccccc2)CC1 | -4 | 0.7 | -2 | 9 | 7 | 1.2 | 5.2 | 1.3 | 0.64 | i
Cc1c(C(=O)O)sc(S(=O)(=O)N2CCN(C(=O)Cc3ccccc3Cl)CC2)c1C(=O)O | . | 0.2 | 1 | 3 | 13 | -2.3 | -4.0 | 3.4 | 0.73 | i
Cc1cc(-c2n[nH]c(=S)n2Cc2ccco2)n(C)n1 | -21 | 0.2 | -4 | . | . | . | . | -11 | 0.7 | .
Cc1ccc(S(=O)(=O)NC(=O)Nc2ccccc2F)cc1 | . | 0.4 | 0 | . | . | . | . | 5.4 | 0.67 | .
O=C(Nc1ccccc1)N1CCC(C(=O)N2CCCC(C(F)(F)F)C2)CC1 (centres undefined) | -5 | 2.7 | 0 | 12 | 11 | 0.3 | -3.4 | 1.6 | 0.72 | i
CC(C)c1nc2n[nH]c(N)c2c2c1CSC(C)(C)C2 | -11 | -0.1 | -2 | . | . | . | . | 0.9 | 0.71 | .
O=C1NC(c2ccccc2)=C(c2nc3ccccc3s2)C(c2ccccc2)N1 (centres undefined) | 25 | 0.1 | 2 | -5 | -17 | 16 | 13 | -31 | 0.71 | i
COc1ccc(S(=O)(=O)N(C)CC(=O)NCCC2=CCCCC2)cc1C | 7 | 0.3 | 7 | . | . | . | . | 1.9 | 0.72 | .
COc1ccc(C(OCC(O)CNCCc2ccc(S(N)(=O)=O)cc2)c2ccc(OC)cc2)cc1 (centres undefined) | -24 | 2.0 | -1 | -4 | -3 | 5.3 | 2.4 | 2.0 | 0.68 | i
COc1cc(OC)c(C(=O)OCC(=O)NCCC2=CCCCC2)cc1OC | -6 | 0.2 | . | -10 | -14 | -0.5 | -2.8 | 1.1 | 0.64 | i

Looked up one by one from the list above, two records:
SMILES | T cruzi inh | A1 inh | Beta cell apopt | rRNA inh HTS | rRNA inh HTS OD600 | rRNA inh HTS RFP | AF4-AF9 inh | UCH37 inh | E coli growth | FGF22 binding
Cc1cc(-c2n[nH]c(=S)n2Cc2ccco2)n(C)n1 | -21 | 0.2 | -4 | . | . | . | . | -11 | 0.7 | .
N#Cc1ccc(Oc2ccc(-c3nc4ccccc4nc3-c3ccccc3)cc2)cc1C#N | 26 | -0.1 | 8 | . | . | . | . | -90 | 0.68 | .
